Compound activity from PubChem BioAssay.
PKD1 inh: PKD1 (human) kinase inhibition; Q15139; PKD1 kinase fluorescence polarization assay; inhibition, %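 (about 10 µM by stock and volumes)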; hit rate 0.056% among 200,000;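 active = inhibition of 50% or more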;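 also: controls were vehicle for no effect and a reference inhibitor for full effect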
Insulin prom inh: TRM-6 insulin promoter activity inhibition. TRM-6 cells (human fetal islet line), insulin promoter-eGFP reporter, imaging; reporter expression induced with tamoxifen. inhibition, % at 2 µM. hit rate 0.9% among 130,000. AID 1273;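 active = inhibition above the mean plus 3 SD, with well images judged a real hit on visual review, cut at about 60% in these data, passing the limit was not always enough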
RGS16-Gao HTS: modulates binding between human RGS16 and Galphao | hit rate 0.38% among 220,000 | O15492+P09471 | AID 1441 | binding response (% of control), % at 10 µM | bead-based flow cytometry RGS16-Galphao binding, fluorescence; actives lie on both sides;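 active = below 25% or above 175%, edge rows of some plates excepted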;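 also: Galphao activated by GDP with aluminum fluoride before binding; 100% = wells without compound and 0% = beads without RGS; some results beyond the cut were filed as inactive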
Target sequence (O15492 whole entry, looked up): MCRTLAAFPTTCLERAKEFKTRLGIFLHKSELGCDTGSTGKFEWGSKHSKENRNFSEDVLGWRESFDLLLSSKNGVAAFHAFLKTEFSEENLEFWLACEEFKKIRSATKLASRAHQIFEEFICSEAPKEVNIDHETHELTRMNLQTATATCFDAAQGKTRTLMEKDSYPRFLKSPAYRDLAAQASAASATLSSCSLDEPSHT
Target sequence (P09471 whole entry, looked up): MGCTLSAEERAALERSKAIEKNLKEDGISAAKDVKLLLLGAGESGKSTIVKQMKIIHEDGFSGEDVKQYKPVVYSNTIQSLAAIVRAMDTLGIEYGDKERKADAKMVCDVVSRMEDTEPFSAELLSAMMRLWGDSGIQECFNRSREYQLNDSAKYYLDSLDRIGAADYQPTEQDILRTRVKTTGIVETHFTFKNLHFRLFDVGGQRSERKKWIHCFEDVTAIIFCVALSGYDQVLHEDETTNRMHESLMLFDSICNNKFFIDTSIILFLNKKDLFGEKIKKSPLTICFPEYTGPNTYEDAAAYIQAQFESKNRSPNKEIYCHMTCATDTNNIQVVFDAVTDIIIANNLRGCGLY
HSV augment: increases HSV replication in cells | hit rate 0.005% among 220,000 | AID 1956 | HSV replication augmentation in cells, fold increase | maximum fold increase;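 active = peak rise of 1.5-fold or more in the series; tested in PC3 cells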;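 also: first round at 10 µM; read as green reporter fluorescence; hits show the peak of a series up to 25 µM; 1 = signal of infected wells without compound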
GALR2 agonist: agonists of human galanin receptor 2 (GALR2) | GALR2-expressing cells, agonist activation read-out | activation, %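 (tested at 5 µM)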 | hit rate 0.48% among 140,000 | AID 803 | O43603;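 active = above mean plus 3 SD of all compounds, about 5% in these data, not always enough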;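 also: 0% = vehicle buffer wells and 100% = reference agonist at full effect; tested in CHO reporter cells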
Target sequence (O43603 whole entry, looked up): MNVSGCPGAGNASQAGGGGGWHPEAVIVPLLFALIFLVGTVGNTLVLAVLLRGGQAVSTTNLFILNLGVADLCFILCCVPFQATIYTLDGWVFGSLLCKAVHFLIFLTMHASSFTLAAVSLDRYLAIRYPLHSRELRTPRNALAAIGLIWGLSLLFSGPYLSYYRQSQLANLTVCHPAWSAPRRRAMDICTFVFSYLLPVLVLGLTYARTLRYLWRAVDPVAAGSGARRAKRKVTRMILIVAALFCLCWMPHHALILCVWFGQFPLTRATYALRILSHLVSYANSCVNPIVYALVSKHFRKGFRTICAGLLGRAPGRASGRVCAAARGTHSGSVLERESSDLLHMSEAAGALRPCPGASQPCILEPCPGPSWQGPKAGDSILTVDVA
Insulin prom inh cell count: second read-out of Insulin prom inh, no call of its own (marks repeat the call); normalized cell count, %; measured here: cell count, toxicity; reference of the scale not given here;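 cells exposed to compound for 48 h; stained nuclei by imaging scaled within each plate; lower means fewer cells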
HSV augment primary fold: recorded beside HSV augment, whose call it bears; fold increase; compound at 10 µM; measured here: primary screen fold increase 10 uM; tested in PC3 cells;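 GFP signal in the first replicate; 1 = infected wells without compound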
* marks the source's active call; other numbers are inactive results; i = inactive; / = no result given.

SMILES | PKD1 inh | Insulin prom inh | Insulin prom inh cell count | RGS16-Gao HTS | HSV augment | HSV augment primary fold | GALR2 agonist
N#C/C(=C\N1CCOCC1)c1ccccc1 | -2 | 14 | 133 | 130 | i | 0.95 | -2.0
Cc1cc(C)c(NC(=O)CSc2ccc3nnc(CCNC(=O)c4ccccc4)n3n2)c(C)c1 | 3 | / | / | 98 | i | 1 | -1.1
COc1cccc(CNC(=O)C(Cc2ccccc2)n2cccc2)c1 (centres undefined) | / | / | / | 98 | i | 0.87 | /
CCCCC1=CC2=CC(=O)C(C)(OC(=O)CC)C(=O)C2=CN1Cc1ccc2c(c1)OCO2 (centres undefined) | / | / | / | 103 | i | 0.85 | /
COc1cccc(Oc2nccc(N(C)C)c2C#N)c1 | 4 | / | / | 99 | i | 1.1 | /
Cn1c(=O)c2c(nc(N3CCOCC3)n2Cc2c(F)cccc2Cl)n(C)c1=O | 9 | -12 | 113 | 105 | i | 0.95 | -2.1
N/C(=N\OC(=O)C12CC3CC(CC(C3)C1)C2)c1ccncc1 | / | / | / | 102 | i | 1.1 | /
O=C(Cc1ccc(Cl)cc1)Nc1ccc2c(c1)C(=O)NC2=O | -7 | / | / | 121 | i | 0.98 | /
Cc1ccc2oc(-c3ccco3)nc2c1 | -17 | 0 | 108 | 100 | i | 0.91 | -2.9
Nc1n[nH]c(-c2ccccc2[N+](=O)[O-])n1 | -3 | -27 | 44 | 102 | i | 1.1 | -1.5
Cn1nnc2c(C(N)=O)ncn2c1=O | / | / | / | 100 | i | 0.64 | /
CC(=O)c1cccc(NC(=O)CC2SC(N3CCCCC3)=NC2=O)c1 (centres undefined) | 0 | 7 | 95 | 98 | i | 1.1 | 0.3
CCOC(=O)CSc1nnc(CNC(=O)c2ccc(S(=O)(=O)N3CCCCC3)cc2)n1C | -2 | / | / | 101 | i | 0.89 | -0.1
CCOC(=O)C1(Cc2ccc(OC)cc2)CCN(C(=O)C2CCCO2)CC1 (centres undefined) | -6 | / | / | 97 | i | 0.93 | /
CC12CCC(C(=O)NCc3ccccn3)(OC1=O)C2(C)C (centres undefined) | -15 | -6 | 220 | 101 | i | 0.94 | -3.4
O=C(CCS(=O)(=O)Cc1ccccc1)N1CCN(Cc2ccccc2)CC1 | 2 | 11 | 113 | 101 | i | 1 | -0.7
COc1ccc(CN/C=C2\CCCCC2=O)cc1 | -5 | -20 | 70 | 106 | i | 1.2 | -0.3
O=C(CSc1nnc(-c2ccncc2)n1CC1CCCO1)Nc1ccccc1Cl (centres undefined) | 7 | 47 | 83 | 103 | i | 0.95 | /
CCSc1nnc(-c2cnn(-c3ccccc3)c2-n2cccc2)n1C | 1 | -7 | 165 | 78 | i | 0.92 | -0.8
CCCCN(CCCC)c1nc2ccccc2nc1NS(=O)(=O)c1ccc(NC(C)=O)cc1 | -3 | 6 | 149 | 101 | i | 0.82 | -1.4
CCCC1(C(=O)OC)NC(c2ccco2)C2C(=O)N(C)C(=O)C21 (centres undefined) | -4 | 49 | 50 | 108 | i | 1 | /
COc1ccc(NC(=O)c2cccnc2Nc2ccccc2)cc1 | 3 | / | / | 97 | i | 0.99 | -2.7
Cc1cnc(NC(=O)CCCSc2nc3ccccc3s2)s1 | 2 | -6 | 91 | 124 | i | 0.74 | 2.0
c1ccc(-c2cc3c(NCC4COc5ccccc5O4)ncnc3s2)cc1 (centres undefined) | -4 | 48 | 65 | 92 | i | 1.1 | -0.8
O=C(Nc1ccc(-n2ccnc2P(=O)(O)c2ccccc2)cc1)c1ccccc1Br | 1 | 35 | 93 | 143 | / | / | -1.2

Quoted at random: 3 compounds from above.
SMILES | PKD1 inh | Insulin prom inh | Insulin prom inh cell count | RGS16-Gao HTS | HSV augment | HSV augment primary fold | GALR2 agonist
O=C(Nc1ccc(-n2ccnc2P(=O)(O)c2ccccc2)cc1)c1ccccc1Br | 1 | 35 | 93 | 143 | / | / | -1.2
Nc1n[nH]c(-c2ccccc2[N+](=O)[O-])n1 | -3 | -27 | 44 | 102 | i | 1.1 | -1.5
Cn1nnc2c(C(N)=O)ncn2c1=O | / | / | / | 100 | i | 0.64 | /

Profiles, quoted from the list. Screens in order: PKD1 inh, Insulin prom inh, Insulin prom inh cell count, RGS16-Gao HTS, HSV augment, HSV augment primary fold, GALR2 agonist
Listed for CCCC1(C(=O)OC)NC(c2ccco2)C2C(=O)N(C)C(=O)C21 (centres undefined) = -4, 49, 50, 108, i, 1, /
Listed for CC12CCC(C(=O)NCc3ccccn3)(OC1=O)C2(C)C (centres undefined) = -15, -6, 220, 101, i, 0.94, -3.4
Listed for CC(=O)c1cccc(NC(=O)CC2SC(N3CCCCC3)=NC2=O)c1 (centres undefined) = 0, 7, 95, 98, i, 1.1, 0.3
Listed for Cn1c(=O)c2c(nc(N3CCOCC3)n2Cc2c(F)cccc2Cl)n(C)c1=O = 9, -12, 113, 105, i, 0.95, -2.1

Additional entries.
SMILES | PKD1 inh | Insulin prom inh | Insulin prom inh cell count | RGS16-Gao HTS | HSV augment | HSV augment primary fold | GALR2 agonist
CCOC(=O)C1CCN(C(=O)c2oc3ccc(S(=O)(=O)N4CC(C)CC(C)C4)cc3c2C)CC1 (centres undefined) | -5 | 63 | 62 | 102 | i | 0.93 | -2.0
O=C1CCCc2nn(-c3ccccc3)nc21 | 2 | 25 | 79 | 106 | i | 0.9 | -4.3
CC1(C)OC(=O)C(=NNc2ccc(Br)cc2)C(=O)O1 | -2 | 39 | 122 | 102 | i | 0.84 | -1.8
CCNc1ccc(S(=O)(=O)N(C)C)cc1NCC(=O)Nc1ccccc1Cl | -2 | / | / | 104 | i | 1 | /
O=C1CCCN1CCCNc1ncnc2c1[nH]c1ccccc12 | 4 | / | / | 94 | i | 1.2 | -1.0
COc1ccc(/C=C2\CCCC3C2=NN(C(=O)c2ccco2)C3c2ccc(OC)c(OC)c2)cc1OC (centres undefined) | 8 | / | / | 99 | i | 0.95 | -1.4
COc1cc(NC(=S)NC(=O)CC(C)C)ccc1NC(=O)c1cc2ccccc2o1 | 10 | -9 | 113 | 100 | i | 0.89 | 0.3
Nc1ccc2c(c1)ncn2CCCn1cnc2cc(N)ccc21 | -6 | 47 | 132 | 92 | i | 0.81 | -5.0
CC(=O)c1c(O)cc(=O)n(-c2ccccc2)c1-c1ccc(C)cc1 | -7 | -2 | 73 | 99 | i | 0.95 | -0.2
O=C(COC(=O)C12CC3CC(CC(C3)C1)C2)NCCCc1ccccc1 | -1 | / | / | 104 | i | 1 | -0.6
CCOC(=O)CSc1nc2ccccc2c(=O)[nH]1 | 0 | / | / | 62 | i | 1 | -4.6
COc1ccc(/C(C)=N/NC(=O)CNC(=O)c2cccs2)cc1OC | 6 | 36 | 125 | 100 | i | 1.1 | /
FC(F)Oc1ccccc1NC(=S)Nc1cccc(Cl)c1Cl | 0 | / | / | 82 | i | 1.2 | -1.1
Cc1ccc(C)c(-n2cc(CN3CCN(C(=O)c4ncn[nH]4)CC3)c(-c3ccccc3)n2)c1 | 2 | / | / | 102 | i | 0.92 | /
Cc1noc2c1C(c1ccc(N(C)C)cc1)C1=C(CC(C)(C)CC1=O)N2 (centres undefined) | -4 | -23 | 147 | 98 | i | 1.1 | 0.6
CC1c2[nH]c3ccccc3c2CCN1C(=O)Nc1ccccc1 (centres undefined) | 1 | 54 | 89 | 113 | i | 0.83 | -2.2
COc1ccc(/C=N/Nc2ncc(C(F)(F)F)cc2Cl)cc1OC | 7 | 38 | 99 | 233 | / | / | -2.4
O=C(O)CCSc1nc2ccccc2c(=O)[nH]1 | 3 | -438 | 57 | 101 | i | 0.89 | -1.9
O=C(c1ccc(=O)[nH]n1)N1CCN(S(=O)(=O)c2ccc3ccccc3c2)CC1 | 1 | / | / | 110 | i | 0.86 | /
O=C(NC1CCCCC1)C(c1ccccn1)N(C(=O)c1csnn1)C1CC1 (centres undefined) | -1 | / | / | 96 | i | 1 | /
O=C(CSc1nnc(COc2ccc(F)cc2)o1)N1c2ccccc2CCc2ccccc21 | -6 | / | / | 94 | i | 0.92 | -0.7
Cc1ccc(C)c(NC(=O)CCC(=O)NNC(=O)C(c2ccccc2)c2ccccc2)c1 | -10 | / | / | 103 | i | 0.93 | -2.5
O=C1CC(/C=C/c2ccc([N+](=O)[O-])cc2)=Nc2ccccc2N1 | / | / | / | 105 | i | 0.92 | /
CCC(=O)N1N=C(c2ccccc2)CC1c1ccc([N+](=O)[O-])cc1 (centres undefined) | -3 | -33 | 159 | 113 | / | / | 0.8
Cn1cnnc1SCC(=O)N/N=C/c1ccc(OCC(N)=O)cc1 | / | / | / | 99 | i | 0.77 | /

(continued)
SMILES | PKD1 inh | Insulin prom inh | Insulin prom inh cell count | RGS16-Gao HTS | HSV augment | HSV augment primary fold | GALR2 agonist
COC(=O)[C@@H]1C[C@@]2(O)[C@@H](O)[C@@H](O)[C@@H](O)C[C@H]2N1CC(c1ccccc1)c1ccccc1 | / | / | / | 105 | i | 0.98 | /
COc1ccc(N2CCN(C(=O)Cn3nnc(-c4ccccc4N)n3)CC2)cc1 | -8 | / | / | 97 | i | 1 | /
N#Cc1ccccc1S(=O)(=O)Nc1ccc2c(c1)C(=O)OC2 | / | / | / | 95 | i | 1 | /
O=C(NCCCN1CCC(Cc2ccccc2)CC1)c1ccc2nc(N3CCOCC3)sc2c1 | / | / | / | 103 | i | 0.94 | /
COc1ccccc1OCc1ccc(C(=O)NCCN(C)C)o1 | 0 | 45 | 143 | 112 | i | 0.96 | -0.9
COc1ccc(NC(C)=O)cc1NC(=O)CN1CCN(c2ccccn2)CC1 | -9 | / | / | 99 | / | / | -0.9
O=c1c2c3n(c(=S)nc2[nH]n1-c1ccccc1)CCCCC3 | 4 | -39 | 80 | 109 | i | 0.87 | -0.9
CN(C)C(=O)C(=O)c1cccn1-c1ccccc1C#N | -8 | 3 | 87 | 100 | i | 0.98 | -3.3
O=c1c2[nH]c3ccc(F)cc3c2ncn1CCC1=CCCCC1 | / | / | / | 105 | i | 1.1 | /
c1coc(-c2nc(-c3ccncc3)no2)c1 | 7 | -16 | 90 | 99 | i | 1.1 | -2.8
COc1ccccc1NC(=O)C1CCCN(c2nc(C)cc(C)n2)C1 (centres undefined) | -2 | 67 | 108 | 94 | i | 1 | -0.7
CCCCCCCCCSc1n[nH]c(N)n1 | -9 | 0 | 98 | 104 | i | 1 | -0.9
CCOc1ccc(NC(=O)N2CCC(n3nnc4cc(C)ccc43)CC2)cc1 | 4 | 0 | 204 | 112 | i | 1 | -0.1
CCn1c(CNC(=O)C(C)(C)C)nc2ccccc21 | -16 | / | / | 114 | i | 0.99 | -1.8
CC(C)CCNC(=O)C(c1ccco1)N(Cc1cccs1)C(=O)Cn1nnc2ccccc21 (centres undefined) | -4 | / | / | 98 | i | 0.98 | -1.4
CCOc1ccc(N2C(=O)/C(=C/c3ccco3)N(C)C2=S)cc1 | 0 | -18 | 144 | 103 | i | 0.99 | -0.6
COc1cc(/C=N/NC(=O)Cc2ccccc2)ccc1Oc1ccc([N+](=O)[O-])cc1[N+](=O)[O-] | 2 | 36 | 189 | 98 | i | 1.1 | -0.8
COc1ccccc1NC(=O)CC(c1ccc(OC(C)C)cc1)c1ccccc1OC (centres undefined) | 3 | -4 | 141 | 102 | i | 1.1 | -1.1
CCN(CC)S(=O)(=O)c1cc(NC(=O)CSc2nc3c(cc2C#N)C(=O)CC(C)(C)C3)ccc1C | 0 | -46 | 87 | 108 | i | 0.59 | -0.1
O=S(=O)(c1ccccc1)N1CCN(C(=S)Nc2ccc(F)cc2)CC1 | 3 | -33 | 93 | 100 | i | 0.93 | 0.1
CCCCC(C(=O)NCCC(C)C)N(CCCN1CCOCC1)C(=O)c1snc(C(N)=O)c1N (centres undefined) | -5 | / | / | 98 | i | 1.1 | -1.1
Brc1cccc(-c2nnc3sc(CN4CCCCC4)cn23)c1 | -15 | / | / | 101 | i | 0.92 | -1.7
O=C(CSc1nnc(-c2ccccc2)c(-c2ccccc2)n1)NCc1ccco1 | -3 | 24 | 133 | 93 | i | 1 | -0.4
Cc1nn(-c2ccccc2)c(C)c1/C=N/Nc1nc2ccccc2[nH]1 | 1 | 84* | 89* | 138 | i | 0.68 | -1.4
NC(=O)c1ccccc1OCC(=O)NS(=O)(=O)c1ccccc1 | -4 | -24 | 112 | 98 | i | 0.88 | -0.8
CCn1ccnc1CN(C)Cc1cn(-c2cc(C)ccc2C)nc1-c1ccccc1 | 4 | / | / | 100 | i | 1 | /
Cc1ccc(F)cc1NC(=O)C12CC3CC(C1)CC(n1cnc([N+](=O)[O-])n1)(C3)C2 | 4 | / | / | 107 | i | 0.94 | -1.9
CN(CP(=O)(O)CCc1ccccc1)S(C)(=O)=O | -3 | 6 | 114 | 100 | i | 0.93 | -2.9
O=C(Nc1ccccc1)ON=C1CCCC1 | 2 | 10 | 48 | 90 | i | 1.2 | 0.5
